Bioassay records deposited in PubChem BioAssay by National Center for Advancing Translational Sciences (NCATS).
NS1 inh – qHTS Assay for Inhibitors of Influenza NS1 Protein Function. S. cerevisiae slowed by influenza A NS1, growth recovery by OD600. Potency, µM (highest dose often 46.1 µM), inactives show at the highest dose activity, positive = more growth. hit rate 0.4% among 270,000. AID 2326, 2010; active means well fitted rising curve with a large enough effect; inconclusive means small, poorly fitted or top-dose-only effect; inactive means no such curve, though single readings can be large or run the other way; further: nearly all actives have a fitted effect of over 50% in size
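S. cerevisiae expressing influenza A NS1, grown in glucose, washed, then diluted 1:100 into pH 6.0 -URA galactose medium with 23 nl compound. Growth recovery read as OD600; NS1-free strain serves as control.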
LASV entry inh – qHTS for Inhibitors of binding or entry into cells for Lassa Virus | Lassa virus pseudotype entry inhibition, cell reporter; control for the full effect not named in the record | Potency, µM (doses to about 37.9 µM), inactives show at the highest dose activity change, negative = inhibition, actives largely listed as inhibitors | hit rate 1.2% among 300,000 | AID 540256, 2011; active means well fitted inhibition curve with a large enough effect; inconclusive means small, poorly fitted or top-dose-only effect, or effect the other way; inactive means flat fitted curve, though single readings scatter; tested in HEK293 cells; further: on the % scale 0 is the no-effect control and ±100 the full control effect; nearly all actives have a fitted effect of over 50% in size; luciferase read-out
Cruzain inh Det – qHTS Assay for Promiscuous and Specific Inhibitors of Cruzain (with detergent) | Cruzipain (Trypanosoma cruzi), P25779 | purified cruzain, Z-FR-AMC fluorescence, 0.01% Triton | Potency, µM, inactives show max response, negative = inhibition, usual class: inhibitors | hit rate 0.43% among 200,000;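 further: plate controls were neutral wells for no effect and buffer without enzyme for full effect; nearly all actives have a fitted effect of over 40% in size; top concentration of the series not given in the record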
Target sequence (P25779 123-467 limits assumed): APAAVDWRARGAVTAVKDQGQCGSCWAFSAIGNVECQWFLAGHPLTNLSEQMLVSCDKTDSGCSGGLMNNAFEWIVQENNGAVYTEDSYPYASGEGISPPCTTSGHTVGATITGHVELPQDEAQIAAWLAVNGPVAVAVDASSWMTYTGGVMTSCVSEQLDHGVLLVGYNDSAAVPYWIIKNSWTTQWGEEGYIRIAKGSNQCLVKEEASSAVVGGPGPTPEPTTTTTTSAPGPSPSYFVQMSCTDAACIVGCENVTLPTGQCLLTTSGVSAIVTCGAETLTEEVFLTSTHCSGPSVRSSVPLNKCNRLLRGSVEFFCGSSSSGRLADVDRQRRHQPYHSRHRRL
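Compounds were screened in titration against cruzain (1.5 nM) with 0.01% Triton X-100 to counter colloidal aggregation. Activity was the AMC fluorescence increase over 60 s after adding 2 uM Z-FR-AMC at pH 5.5.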
StopGo reporter – High Throughput Screening for Foot and Mouth Disease Virus Antivirals; human cells with a luciferase reporter of 2A StopGo recoding; control for the full effect not named in the record; Potency, µM (series often up to 57.9 µM), for the others: at the highest dose signal change, negative = less light; hit rate 1.2% among 410,000; active = well fitted falling curve with a large enough effect; inconclusive = small, poorly fitted or top-dose-only effect; inactive = no such curve, though single readings can be large or run the other way; tested in HEK293T cells; further: on the % scale 0 is the no-effect control and ±100 the full control effect; nearly all actives have a fitted effect of over 45% in size; luciferase light after 4 h
Cruzain noTriton – qHTS Assay for Promiscuous and Specific Inhibitors of Cruzain (without detergent); Cruzipain (Trypanosoma cruzi), P25779; purified cruzain, Z-FR-AMC fluorescence, no detergent; Potency, µM, for the others: max response, negative = inhibition, actives largely listed as inhibitors; hit rate 2.3% among 200,000; AID 1476, 2009;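 further: plate controls were enzyme without inhibitor for no effect and buffer without enzyme for full effect; nearly all actives have a fitted effect of over 40% in size; top concentration of the series not given in the record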
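Detergent-free condition (0.00005% Triton X-100) in acetate buffer pH 5.5 with DTT. 1.5 nM enzyme and compound were pre-mixed 15 min, then 2 uM Z-FR-AMC substrate added; reaction progress from fluorescence change between first and third reads (60 s).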
SARS PLpro yeast – qHTS of Yeast-based Assay for SARS-CoV PLP; S. cerevisiae expressing SARS-CoV PLpro, growth rescue; control for the full effect not named in the record; Potency, µM (doses to about 32.9 µM), for inactives: at the highest dose activity, positive = growth rescue; hit rate 0.19% among 330,000; AID 485353, 2010; active means well fitted rising curve with a large enough effect; inconclusive means small, poorly fitted or top-dose-only effect; inactive means no such curve, though single readings can be large or run the other way; further: 0% is about no effect; nearly all actives have a fitted effect of over 55% in size; growth read by luminescence after 48 h
Marburg entry inh – qHTS for inhibitors of binding or entry into cells for Marburg Virus; Potency, µM (top dose mostly 37.8 µM), inactives show top-dose activity change, negative = inhibition, usual class: inhibitors; hit rate 1.8% among 300,000; Marburg virus pseudotyped entry inhibition, cell reporter; control for the full effect not named in the record; about a third of the inactives were read at about 46 µM; active = well fitted inhibition curve with a large enough effect; inconclusive = small, poorly fitted or top-dose-only effect, or effect the other way; inactive = flat fitted curve, though single readings scatter; tested in HEK293 cells; about a fifth of its hits are not listed in these tables; further: on the % scale 0 is the no-effect control and ±100 the full control effect; luciferase read-out
RE007 growth inh – qHTS Assay for Inhibitors of the HIV-1 protein Vpr. S. pombe RE007 Vpr strain, BacTiter-Glo ATP luminescence, 24 h; control for the full effect not named in the record. Potency, µM (series often up to 92.2 µM), for the others: at the highest dose activity change, negative = less growth. hit rate 0.21% among 360,000; active = well fitted falling curve with a large enough effect; inconclusive = small, poorly fitted or top-dose-only effect; inactive = no such curve, though single readings can be large or run the other way;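 further: on the % scale 0 is the no-effect control and ±100 the full control effect; nearly all actives have a fitted effect of over 50% in size; the assay follows cell death caused by Vpr and the record does not say whether a fall means rescue or toxicity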
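Fission yeast strain RE007, carrying one chromosomally integrated HIV-1 vpr copy, was seeded at OD 0.01 in PMG+AL medium with 23 nL pinned compound. After 24 h at 30 °C and 99% humidity, viability was read by BacTiter-Glo luminescence.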
* = called active by the depositor; ? = inconclusive; . = not tested or not shown; & = joins results of further samples; [ ] = dose if it differs, or a comment. Unless noted, the call rests on the fitted dose curve; in most records, active means well fitted curve in the direction sought with a large enough effect; inconclusive means small, poorly fitted or top-dose-only effect, or another doubt; inactive means no such curve, though single readings can be large; an effect the other way counts as inactive or inconclusive. Potency means the concentration at half of the fitted maximal effect.

SMILES | NS1 inh | LASV entry inh | Cruzain inh Det | StopGo reporter | Cruzain noTriton | SARS PLpro yeast | Marburg entry inh | RE007 growth inh
O=C(CSc1nc2ccccc2c(=O)n1Cc1ccco1)NCc1ccco1 | 5% | -8% | -5.9% | . | -27% | 3% | -27% | -17%
COc1ccc2[nH]c(C(=O)N(C)c3ccc(F)cc3F)cc2c1 | -5% | ? | . | -11% | . | -1% | 2% | -12%
CC1CCCCN1CCCNC(=O)C1CCN(c2nc3ccccc3o2)CC1 (stereo unspecified) | -2% | . | 8.4% | 2% | 15% | 1% | . | -8%
S=c1[nH]nc(-c2ccc(Cl)cc2)n1-c1ccc(Cl)cc1 | 21% | 27% | . | -21% | . | 1% | 10% | 7%
CN(C)S(=O)(=O)NCCNc1ccc(C(F)(F)F)cc1[N+](=O)[O-] | 5% | 19% | . | -5% | . | 0% | 6% | 20%
CCOC(=O)C1CCN(c2nc(C)cc(C)c2C#N)CC1 | -2% | 3%[46.1 µM] | . | -20% | . | 0% | -11%[46.1 µM] | 0%
CC1CCC(NCC(O)c2ccccc2)CC1 (stereo unspecified) | -2% | 0% | 0.2% | 5% | -2% | 1% | -27% | -5%
CC(/C=C\c1ccccc1)=C/C(=O)O | -47% | -1% | . | -5% | . | -2% | -1% | -15%
Cn1c(=O)c2c(nc(OCc3cccnc3)n2Cc2c(F)cccc2Cl)n(C)c1=O | -16% | 9% | 3.5% | ? | 4% | -3% | 12% | -10%
O=C(NC1CCCN(CCc2ccccc2)C1)c1c(F)cccc1F (stereo unspecified) | 4% | . | . | -13% | . | -5% | . | -5%
C=CCc1cc(OC)ccc1OCCOCCC(C(=O)OCC)C(=O)OCC | 2% | -16% | -7.9% | -12% | 16% | -6% | -5% | 2%
CC(=O)c1cccc(NC(=O)CCc2nnc3ccc(N4CCN(C)CC4)nn23)c1 | 9% | . | . | -1% | . | ? | . | 1%
COc1ccc(-c2nn(-c3ccccc3)cc2C(=O)O)cc1N | ? | . | . | -22% | . | -6% | . | -1%
Cc1cc(C)cc(NC(=O)CSc2nnc(CNC(=O)c3c(F)cccc3Cl)o2)c1 | . | 15%[46.1 µM] | 1.3% | -2% | -6% | . | ? | .
COc1cc(C(C)=O)ccc1OCc1cc(C(=O)N(C)CCC2CCCCO2)no1 (stereo unspecified) | -18% | . | . | 60%[activator] | . | 1% | . | 1%
Cc1ccc(C)c(NC(=S)N2CCC(NC(=O)C3CCCCC3)CC2)c1 | -2% | ? | . | -9% | . | 0% | 2%[46.1 µM] | -13%
COc1ccc(/C=C2\CCCC3C2=NN(C(=O)COC(=O)CNC(=O)c2ccccc2)C3c2ccc(OC)cc2)cc1 (stereo unspecified) | -2% | ? | -26% | -11% | 16µM* | -2% | ? | 14%
COC(=O)C1=C(C)N(Cc2ccc(C)cc2)C(=O)C1 | ? | 0% | 5.6% | -21% | -10% | -1% | ? | 3%
COc1ccc(CCN2CN(S(=O)(=O)c3ccc(OC)cc3)c3nc4ccccc4nc32)cc1 | 19% | -1% | -4.4% | 34%[activator] | -20% | 23% | 11% | 3%
Cc1cc(OC(=O)c2cc([N+](=O)[O-])ccc2Cl)c([N+](=O)[O-])c(=O)[nH]1 | -11% | . | . | -12% | . | 4% | . | -2%

Profiles from above. Screens in order: NS1 inh | LASV entry inh | Cruzain inh Det | StopGo reporter | Cruzain noTriton | SARS PLpro yeast | Marburg entry inh | RE007 growth inh
Results for COc1ccc(-c2nn(-c3ccccc3)cc2C(=O)O)cc1N = ? | . | . | -22% | . | -6% | . | -1%
Results for O=C(NC1CCCN(CCc2ccccc2)C1)c1c(F)cccc1F (stereo unspecified) = 4% | . | . | -13% | . | -5% | . | -5%

Individual results from the list:
Cruzain inh Det result of Cn1c(=O)c2c(nc(OCc3cccnc3)n2Cc2c(F)cccc2Cl)n(C)c1=O stands at 3.5%
SARS PLpro yeast result of COc1ccc(-c2nn(-c3ccccc3)cc2C(=O)O)cc1N stands at -6%

Three entries already listed, ordered by count of non-hydrogen atoms, low to high.
SMILES | NS1 inh | LASV entry inh | Cruzain inh Det | StopGo reporter | Cruzain noTriton | SARS PLpro yeast | Marburg entry inh | RE007 growth inh
CCOC(=O)C1CCN(c2nc(C)cc(C)c2C#N)CC1 | -2% | 3%[46.1 µM] | . | -20% | . | 0% | -11%[46.1 µM] | 0%
CC1CCCCN1CCCNC(=O)C1CCN(c2nc3ccccc3o2)CC1 (stereo unspecified) | -2% | . | 8.4% | 2% | 15% | 1% | . | -8%
CC(=O)c1cccc(NC(=O)CCc2nnc3ccc(N4CCN(C)CC4)nn23)c1 | 9% | . | . | -1% | . | ? | . | 1%

Next section
SMILES | NS1 inh | LASV entry inh | Cruzain inh Det | StopGo reporter | Cruzain noTriton | SARS PLpro yeast | Marburg entry inh | RE007 growth inh
CN(c1ccccc1)S(=O)(=O)c1cccc(C(=O)NCCCN2CCCC2=O)c1 | . | 14% | . | -9% | . | 5% | 1% | -15%
CCOc1ccc(C=NN2CCCCCC2)cc1OCC | . | -1%[46.1 µM] | . | 5% | . | . | -8%[46.1 µM] | 3%
CCOC(=O)c1c(S(=O)(=O)NCC(=O)Nc2cccc(C)n2)c(C)n(C)c1C | -17% | . | . | 15% | . | ? | . | 1%
COc1ccc(N2C(=O)CC(N3CCN(c4ccccc4F)CC3)C2=O)cc1 (stereo unspecified) | 0% | 3% | -3.3% | . | 5% | -7% | 15% | -24%
Cc1cccc(/N=C/c2c(O)cc(C)oc2=O)n1 | -3% | -10% | 0.9% | -23% | -22% | 17% | 6% | -12%
CC(C)(C)C(=O)Nc1ccc(S(=O)(=O)Nc2nccs2)cc1 | 5% | . | . | 14% | . | -1% | . | -13%
COc1ccc(N2CCN(C(=O)CN(c3ccc(OC)cc3)S(=O)(=O)c3ccccc3)CC2)cc1 | 28% | ? | . | -6% | . | -1% | ? | 8%
CCC(=O)NNC(=S)NC(=O)c1ccc(C)cc1 | -48% | ? | . | -5% | . | 1% | . | -22%
CC(=O)NS(=O)(=O)c1ccc(NC(=O)c2oc3c(Cl)cccc3c2C)cc1 | -2% | 26% | . | 10% | . | 0% | 3% | 6%
CCCNC(=O)C1CCC(CNS(=O)(=O)c2ccc3c(c2)N(C(C)=O)CCO3)CC1 (stereo unspecified) | 2% | ? | . | 9% | . | 2% | 6%[46.1 µM] | -13%
CC1Cc2nc(SCC(=O)Nc3nccs3)n(C)c(=O)c2S1 (stereo unspecified) | -20% | 5% | -15% | -1% | -2% | -9% | -9% | 18%
Cc1ccnc(NC(=O)CCC(=O)N(CC(=O)NC(C)(C)C)Cc2ccc3c(c2)OCO3)c1 | 9% | 9% | . | -5% | . | 4% | 18%[46.1 µM] | -23%
CC(=O)C1CCC2(O)C3CCC4=CC(=O)CCC4(C)C3CCC12C (stereo unspecified) | . | -2%[46.1 µM] | . | -20% | . | . | 18% | -21%
O=C(c1cccc(Cl)c1)N1CCN(Cc2ccc3c(c2)OCO3)CC1 | ? | . | . | -19% | . | 6% | . | -6%
O=C(NC1CC1)c1cc2cc(Br)ccc2s1 | 7% | -28%[46.1 µM] | . | 0% | . | 5% | -7%[46.1 µM] | -18%
O=C(NCCc1ccccc1)c1ccc2c(c1)N(Cc1ccccc1F)C(=O)c1ccccc1S2=O (stereo unspecified) | . | -20%[46.1 µM] | 1.3% | 9% | ? | . | 30%[46.1 µM] | .
OC1(c2ccc(Br)cc2)CCNCC1 | 5% | 4% | 2.5% | -8% | -8% | -2% | ? | 1%
CN(C)CCNC(=O)c1ccccc1-c1ccccc1 | ? | 8% | 3.6% | -3% | 8% | 2% | 6%[46.1 µM] | -7%
COc1ccc(Cl)cc1NC(=O)CCS(=O)(=O)c1cc2c(cc1C)NC(=O)CO2 | -12% | . | . | -17% | . | 0% | . | 13%
CC(C)(C)c1ccc(C(=O)N2CCN(c3ncccn3)CC2)cc1 | -4% | . | . | 3% | . | -3% | . | -6%
COc1cc(/C=C/C(=O)OCC(=O)Nc2ccc3c(c2)OCCO3)ccc1O | 16% | -26% | -6.0% | -5% | -16% | 4% | ? | 20%
Cc1ccc(NC(=O)CCS(=O)(=O)c2ccc3c(c2)NC(=O)C(C)S3)cc1Cl (stereo unspecified) | -5% | . | . | ? | . | 11% | . | 1%
COc1c2c(nc3occc13)C(CC=C(C)C)(OC)C(OC(C)=O)CC2 (stereo unspecified) | 12% | ? | 2.0% | -14% | 27% | 1% | ? | 24%
CCNS(=O)(=O)c1ccc(CCC(N)=O)cc1 | 5% | 21%[46.1 µM] | . | -1% | . | -1% | -1% | 46%
COc1cccc(CN(C)CC(=O)NNC(=O)c2ccc(Cl)cc2)c1 | 11% | -1% | 0.5% | 4% | 4% | 20% | 11% | -14%
CCOC(=O)c1sc2ccccc2c1S(=O)(=O)Nc1ccc(CC)cc1 | . | -5%[46.1 µM] | -9.0% | 16% | -20% | . | . | .
Cc1cccc(NC(=O)C2CCCN(C(=O)Nc3ccc(F)cc3)C2)c1 (stereo unspecified) | -4% | 3%[46.1 µM] | . | 1% | . | -6% | 21%[46.1 µM] | -16%
Cc1ccc(-n2cnc3c(sc4nc(N5CCOCC5)c5c(c43)CCCC5)c2=O)cc1 | 2% | . | . | ? | . | 0% | . | -14%
CCC1CCCCN1Cc1ccc(OC)c(C)c1 (stereo unspecified) | -3% | -25% | -2.3% | . | -10% | 0% | ? | -4%
COC(=O)C1(C)NC(c2cccs2)C2C(=O)N(c3ccccc3F)C(=O)C21 (stereo unspecified) | -2% | ? | -1.1% | -4% | 1% | -12% | -2% | -7%
O=C(CN1CCN(c2ccc(Cl)cc2)CC1)c1ccc2c(c1)OCO2 | -10% | 8% | -5.6% | -4% | ? | -10% | 6% | -27%
CN1C(=O)c2ccc(NC(=O)c3cccc4ccccc34)cc2C1=O | 1% | 10%[46.1 µM] | . | 1% | . | 1% | -17%&-17%[46.1 µM] | -6%
